High-throughput results: PubChem, National Center for Advancing Translational Sciences (NCATS)
gsp antagonist: qHTS for Antagonists of gsp, the Etiologic Mutation Responsible for Fibrous Dysplasia/McCune-Albright Syndrome: qHTS; Potency, µM (doses to about 76.9 µM), inactives show at the top dose activity change, negative = inhibition, actives largely listed as inhibitors; hit rate 0.4% among 340,000; gsp-mutant cells, cAMP HTRF, 30 min; control for the full effect not named in the record; AID 624288, 2012; active = falling curve of any shape with a large fitted effect; inconclusive = falling curve, mostly with a smaller effect; inactive = flat or rising curve; cell line not stated here;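 note: intracellular cAMP measured with PDE inhibitor Ro 20-1724 present during compound exposure; potency is the fitted concentration of half-maximal effect; % is set by controls: 0 for no effect and ±100 for the full control effect; nearly all actives have a fitted effect of over 65% in size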
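Cells, 2000/well, grown 16–24 h in DMEM 10% FBS with 0.5 mg/ml G418, then compounds plus […] (300 uM addition stock), 30 min at 37C. cAMP read by HTRF (cAMP-d2 and anti-cAMP antibody-K in lysis buffer) after 30 min RT.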
D2 ag: Beta-Arrestin HTS for Positive Allosteric Modulators of the Human D2 Dopamine Receptor: Agonists. activation, % (test concentration not listed). DiscoveRx PathHunter D2 beta-arrestin, luminescence, 90 min; 100% = 57 uM dopamine signal. hit rate 0.084% among 360,000. D(2) dopamine receptor (Homo sapiens), P14416; in the data active = activation above about 40%; inconclusive = about 15% to 40%; inactive = below about 15%; note: compound concentration not given in the record; the text of the record calls up to 30% inactive
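DiscoveRx PathHunter D2 beta-arrestin cells (2,100/well) attached overnight, then compound-stimulated 90 min at 37 C in HBSS/10 mM HEPES/0.1% Tween-20 buffer; beta-galactosidase complementation read by luminescence after 1 h at ambient temperature. Dopamine 57 uM final (EC100) as control.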
Six1-Eya2 inh: qHTS Assay for Inhibitors of the Six1/Eya2 Interaction; Homeobox protein SIX1 (Homo sapiens) + Protein phosphatase EYA2 (Homo sapiens), …; activity change, % (concentration not given with the values); AlphaScreen GST-Six1/His-Eya2 binding, biochemical; stronger effect = lower value; control for the full effect not named in the record; hit rate 0.56% among 360,000; in the data active = activity change below about -65%; inconclusive = about -30% to -65%; inactive = above about -30%; note: % is set by controls: 0 for no effect and ±100 for the full control effect
Target sequence (O00167 whole entry, looked up): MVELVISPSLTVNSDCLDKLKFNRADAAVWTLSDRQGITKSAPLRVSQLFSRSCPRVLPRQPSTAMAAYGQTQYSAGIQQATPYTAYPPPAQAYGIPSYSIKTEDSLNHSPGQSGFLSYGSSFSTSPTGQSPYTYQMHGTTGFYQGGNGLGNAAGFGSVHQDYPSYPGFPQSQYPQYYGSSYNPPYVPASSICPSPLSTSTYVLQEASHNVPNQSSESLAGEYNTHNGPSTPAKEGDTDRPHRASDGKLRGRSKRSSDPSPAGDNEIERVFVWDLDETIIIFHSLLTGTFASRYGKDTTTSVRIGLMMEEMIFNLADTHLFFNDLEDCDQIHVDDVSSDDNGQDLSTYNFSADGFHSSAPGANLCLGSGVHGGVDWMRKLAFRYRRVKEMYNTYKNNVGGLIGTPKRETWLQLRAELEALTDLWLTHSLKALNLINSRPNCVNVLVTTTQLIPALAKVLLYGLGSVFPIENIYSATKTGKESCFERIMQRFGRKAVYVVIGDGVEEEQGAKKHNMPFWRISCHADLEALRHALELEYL
Target sequence (Q15475 whole entry, looked up): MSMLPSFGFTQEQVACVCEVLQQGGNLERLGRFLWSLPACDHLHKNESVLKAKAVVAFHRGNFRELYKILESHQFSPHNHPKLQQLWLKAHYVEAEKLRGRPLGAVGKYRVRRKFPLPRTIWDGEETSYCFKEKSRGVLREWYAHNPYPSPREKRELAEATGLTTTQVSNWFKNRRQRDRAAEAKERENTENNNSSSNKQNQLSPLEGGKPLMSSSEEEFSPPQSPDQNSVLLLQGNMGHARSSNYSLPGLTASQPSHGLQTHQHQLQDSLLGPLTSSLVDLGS
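Compounds are tested against tagged Six1 and Eya2 proteins bridged by glutathione donor and nickel acceptor beads; after a one-hour incubation at 37 °C without light, AlphaScreen emission is recorded.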
CtBP-E1A blk: qHTS Assay for Inhibitors of the CtBP/E1A Interaction. CtBP / adenovirus E1A interaction (AlphaScreen). AlphaScreen GST-E1A/His-CtBP binding, 1536-well; stronger effect = lower value; control for the full effect not named in the record. activity change, % (concentration not given with the values). hit rate 0.49% among 340,000. AID 651724, 2012; in the data active means activity change below about -65%; inconclusive means about -30% to -65%; inactive means above about -30%; note: % is set by controls: 0 for no effect and ±100 for the full control effect
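In 5 uL wells, 23 nL compound meets equimolar GST-E1A and His-CtBP (5X stock 125 nM each) for 2 h, 37 °C. Beads (5X, 50 ug/mL) then 1 h, 37 °C, dark.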
gsp agonist: qHTS for Agonist of gsp, the Etiologic Mutation Responsible for Fibrous Dysplasia/McCune-Albright Syndrome: qHTS. gsp mutant cells, cAMP HTRF, 30 min; control for the full effect not named in the record. Potency, µM (highest dose often 76.9 µM), for the others: at the top dose activation (cAMP increase), actives largely listed as activators. hit rate 0.13% among 340,000; active = well fitted activation curve with a large enough effect; inconclusive = small, poorly fitted or top-dose-only effect, or another doubt; inactive = no such curve, though single readings can be large or run the other way; cell line not stated here;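 note: phosphodiesterase inhibitor Ro 20-1724 added with compounds to block cAMP breakdown; potency is the fitted concentration of half-maximal effect; nearly all actives have a fitted effect of over 60% in size; about a fifth of the inactives were tested at one dose only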
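Cells in DMEM/10% FBS with G418 were pretreated with compounds in DMSO plus […] (300 uM stock) for 30 min at 37C. cAMP was measured by HTRF (cAMP-d2 plus anti-cAMP antibody-K) after 30 min at room temperature.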
D2 potentiator: Beta-Arrestin HTS for Positive Allosteric Modulators of the Human D2 Dopamine Receptor: Potentiators; D(2) dopamine receptor (Homo sapiens), P14416; DiscoveRx D2 beta-arrestin cells, luminescence, 90 min; 100% = 57 uM dopamine signal; potentiation, % (concentration not given with the values); hit rate 0.23% among 360,000; AID 624464, 2012; active = potentiation of 50% or more; inconclusive = 30% to 50%; inactive = 30% or less;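 note: compound concentration not given in the record; tested on top of an EC20 dose of dopamine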
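PathHunter beta-arrestin assay in DiscoveRx D2 cells. Compounds were added with an EC20 of dopamine (50 nM final) for 90 min at 37 deg C. Luminescence was read 1 h after detection reagent, with 57 uM dopamine as the EC100 control.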
An asterisk follows results filed as active; ? = inconclusive; · = no result given; [ ] = another dose, or the depositor's remark.

SMILES	gsp antagonist	D2 ag	Six1-Eya2 inh	CtBP-E1A blk	gsp agonist	D2 potentiator
CCOC(=O)C1CCN(C(=O)CS(=O)(=O)Cc2nc(-c3ccccc3Cl)oc2C)CC1	-13%	-1.2	-2	-6	?	-3
CCOc1ccc(-n2cnnn2)cc1S(=O)(=O)N1CCCCC1	12%	-1.8	-11	-8	-7%	20
CC1CCc2sc(C(=O)NCC3CCCO3)cc2C1 (stereo not given)	17%	-1.0	1	7	-5%[15.4 µM]	-10
Cc1ccccc1NC(=O)CCS(=O)(=O)c1ccc(Br)s1	6%	-4.3	-7	2	-1%[15.4 µM]	-10
CCOC(=O)C1(Cc2cccc(F)c2)CCN(C(=O)c2cnc(C)cn2)CC1	5%	-4.1	6	-15	-7%	-1
COc1ccccc1-n1c(SCC(=O)N2CCOCC2)nc2ccccc2c1=O	8%	-3.5	5	0	9%[15.4 µM]	-1
Cc1ccc(NCc2nnc(SCCN3CCCCC3)n2CC2CCCO2)c(C)c1 (stereo not given)	8%	-2.8	-2	-2	-26%	-35
CCOC(=O)C(C)n1cnc2c(nnn2-c2ccccc2)c1=O (stereo not given)	13%	-2.0	-2	2	-35%[inhibitor]	-3
CN(CC(=O)Nc1cccc(F)c1)C(=O)c1ccncc1	14%	2.4	3	6	-54%[inhibitor]	-8
Cc1ccc(-n2c(SCC(=O)N3CCOCC3)nnc2-c2cccnc2)cc1	-3%	-1.3	-1	-4	4%	4
CC(=O)NC(CC(=O)OCC(=O)N1c2ccccc2NC(=O)C1(C)C)c1ccccc1 (stereo not given)	17%	-0.8	0	3	-30%	-33
CCOC(=O)c1sc2nc(C)cc(-c3ccccc3)c2c1N	-17%	-1.6	18	4	-2%	16
CN(C)c1cc(-c2ccc(Br)cc2)oc(=O)c1Cl	?	-15	-20	-5	2%[15.4 µM]	-8
CCOC(=O)C1=C(C)Nc2ncnn2C1c1cccnc1 (stereo not given)	5%	-3.5	3	-6	-8%	-8
C=CCn1c(=O)c(C(=O)NCc2ccc3c(c2)OCO3)c(O)c2cc(OC)c(OC)cc21	11%	2.2	3	4	-6%[15.4 µM]	17
COc1ccccc1C(=O)Nc1cccc(C(=O)N2CCOCC2)c1	1%	-4.0	30	14	-47%[inhibitor]	-24
COc1ccc(CCN(C)c2ncnc3sccc23)cc1OC	-32%	-1.7	?	-3	3%	4
NC(=O)C1(Nc2ccccc2)CCCC1	-4%	0.8	0	0	-6%[15.4 µM]	-24
COc1cc2[nH]c(=S)nc(NCc3ccc(Cl)cc3)c2cc1OC	-17%	-1.6	?	?	?	-8
COc1ccc(OC)c(-c2nc(C(N)=O)c3[nH]c(=O)n(-c4ccc(F)cc4)c3n2)c1	-17%	-5.8	-1	1	4%	1
Cc1ccc(C(=O)Nc2nc(-c3ccccn3)cs2)o1	-13%	1.6	-93*	?	-1%	4
O=C(NC1CCCC1)C1CCN(c2nccs2)CC1	8%	-6.6	-6	2	-42%[inhibitor]	-7
O=C(c1ccccc1)C1CCN(C(=O)c2ccc(Cl)cc2)CC1	0%	3.7	2	0	-22%	-8
O=C(O)/C=C\C(=O)Nc1ccccc1C(=O)NC1CCCCC1	0%	-4.2	-2	0	-17%[15.4 µM]	-7
COc1ccccc1C(=O)NCCSCc1c(F)cccc1Cl	-5%	-0.8	7	·	-22%	-14

The listing continues.
SMILES	gsp antagonist	D2 ag	Six1-Eya2 inh	CtBP-E1A blk	gsp agonist	D2 potentiator
[O-]C1=N/[N+](=C/c2ccc(Cl)c(Cl)c2)CC1	-2%	-3.3	3	-1	36%	4
COc1cccc(-n2nc(C(=O)NCC3CCCO3)c3ccccc3c2=O)c1 (stereo not given)	6%	-3.4	2	2	17%	1
NC(=O)c1ccc(NC(=O)CSc2nnc(-c3ccccn3)n2N)cc1	15%	-0.9	?	·	14%	-5
COc1ccc(S(=O)(=O)N2CCOC2CNC(=O)C(=O)NCc2ccccn2)cc1C (stereo not given)	3%	-4.2	-3	-5	-5%	-9
Cc1ccccc1OCC(=O)Nc1ccccc1C(=O)NC1CC1	-32%	-5.0	-1	6	20%	-32
Cc1ccccc1N(C(=O)c1snc(C(N)=O)c1N)C(C)C(=O)NC1CCCCC1 (stereo not given)	-6%	-2.9	0	0	14%[15.4 µM]	-3
CN(C(=O)c1ccc2ccccc2c1)c1ccccn1	1%	-1.1	18	0	0%[15.4 µM]	2
COc1ccc(N=N/C(C(C)=O)=C(/C)O)cc1	2%	2.7	1	-2	?	-3
Cc1[nH]c2ccccc2c1CN1CCC(Cc2ccccc2)CC1	3%	0.8	-13	-3	-6%[15.4 µM]	-42
CNC(=S)N(Cc1ccc2c(c1)OCO2)C1CC(=O)N(c2ccc(F)cc2)C1=O (stereo not given)	-4%	2.4	-11	-3	-4%	-24
Cc1ccc(NS(=O)(=O)c2cc([N+](=O)[O-])ccc2NNC(=S)Nc2cccc(Cl)c2)c(C)c1	-17%	-3.9	?	?	-7%	-12
COc1ccc(-c2noc(CN(Cc3nccn3C)C(C)C)n2)cc1	-3%	-1.7	0	0	8%[15.4 µM]	-2
COC(=O)c1ccc(C(=O)OC)c(NC(=O)N2c3ccccc3Sc3ccccc32)c1	31%[activator]	-0.3	2	1	-56%	-6
CN(Cc1ccccc1)C(=O)c1ccc(NC(=O)Cc2ccc(NC(=O)C3CCN(C(=O)C4CCCC4)CC3)cc2)cc1	0%	-1.4	5	0	·	-4
O=C(NCc1ccccc1Cl)C(=O)c1cn(CC(=O)N2CCOCC2)c2ccccc12	-6%	-4.7	2	?	6%	0
CCOC(=O)c1ccc(S(=O)(=O)N2CCC(C(=O)O)CC2)cc1	-18%	-3.4	-3	-2	7%	-2
CCOCc1nnc(NC(=O)c2cc(OC)c(OC)c(OC)c2)s1	6%	-2.3	-13	-12	-4%[15.4 µM]	-5
CCCCN1C(=O)N(C)C2C1N(C)C(=O)N2CCCC (stereo not given)	11%	-1.4	3	7	11%	-1
CCCOc1cccc(C(=O)Nc2cc(NC(=O)c3ccco3)ccc2OC)c1	-22%	-4.0	-7	-19	10%	8
O=C(Nc1ccccc1)C1=C[C@@H](C2CC2)C[C@@H](OCc2ccc(CO)cc2)O1	-4%	-1.8	-1	0	·	-8
COc1ccc(C)cc1NC(=O)C1CCN(S(=O)(=O)c2cccc3nonc23)CC1	1%	1.0	-19	-3	21%	-1
O=C(CCN1C(=O)c2ccccc2C1=O)N1CCOCC1	14%	-0.4	-14	-6	-5%	-19
O=C(Nc1ccc(F)cc1)Nc1ccccc1N1CCCCC1	?	-0.3	-1	·	3%	-16
CNC(=S)Nc1cccc([N+](=O)[O-])c1	1%	-3.8	-10	-2	17%[15.4 µM]	-9
COc1ccc(C(=O)NCCCNC(=O)c2ccccn2)cc1	5%	0.6	-2	7	16%	-4

(more compounds)
SMILES	gsp antagonist	D2 ag	Six1-Eya2 inh	CtBP-E1A blk	gsp agonist	D2 potentiator
COC(=O)C(CC(=O)c1ccc(Cl)cc1)c1ccc(C(C)C)cc1 (stereo not given)	-3%	-0.3	-2	32	23%	-16
COc1cccc(/C=C/C(=O)NNC(=O)c2cc(C)oc2C)c1	10%	3.3	-5	2	14%	8
COc1ccc(N(Cc2ccccc2)S(=O)(=O)c2cccc(C(=O)NCC3CCCO3)c2)cc1 (stereo not given)	-13%	-1.3	3	-9	-7%[15.4 µM]	-66
Cc1c(NC(=S)N/C(=N/S(=O)(=O)c2ccccc2)c2ccccc2)c(=O)n(-c2ccccc2)n1C	7%	-1.6	-1	17	?	-8
Cc1ccc(S(=O)(=O)NC23CC4CC(CC(C4)C2)C3)cc1	7%	-2.9	4	·	-18%	-4
Brc1c(-c2ccccc2)nc2n1Cc1ccccc1-2	?	-7.2	?	?	-6%[15.4 µM]	-9
CC(=O)NC1=NC(=O)/C(=C/c2cc(C)n(-c3ccc(NC(C)=O)cc3)c2C)S1	-12%	-0.4	-6	-28	-11%	8
CC(C)c1cc(-c2n[nH]c(=S)n2Cc2ccccc2)cs1	-10%	5.4	-1	-7	-11%	-6
CC1Cc2cccc3ccc(=O)n(c23)C1 (stereo not given)	10%	-1.8	1	1	?	-16
Oc1ccc2ccccc2c1CN1CCOCC1	5%	8.3	3	0	-13%[15.4 µM]	1
O=C1C2C3C=CC(C3)C2C(=O)N1c1ccccc1OS(=O)(=O)c1ccccc1 (stereo not given)	-1%	0.6	12	10	20%[15.4 µM]	-10
CCc1ccc(CCC(=O)Nc2ccccc2C(=O)O)o1	?	1.2	-1	1	12%	1
COc1ccccc1C1CC(=O)Oc2c(C(C)C)ccc(C)c21 (stereo not given)	-7%	-0.2	4	4	·	3
COc1ccc(Cl)cc1N1C(=NC(=O)C2CCCCC2)SC2CS(=O)(=O)CC21 (stereo not given)	-4%	3.8	3	-15	?	-8
O=C(O)c1cc(-c2ccc(Cl)cc2)n(-c2cccc(Cl)c2)n1	-13%	-4.7	6	-12	17%[15.4 µM]	-4
C[C@H](CO)N1C[C@H](C)[C@@H](CN(C)C(=O)Nc2ccc3c(c2)OCO3)Oc2c(NC(=O)Cc3ccccc3)cccc2C1=O	1%	-1.4	0	-22	·	-5
CCOC(=O)CSc1nnc(-c2c[nH]c3ccccc23)o1	-4%	-2.8	-7	-2	-5%[15.4 µM]	-35
COc1ccc(CCn2c(C(C)C)nc3oc4ccccc4c(=O)c3c2=O)cc1	?	-3.4	-6	-9	15%	-13
Cc1cnc2nc(-c3ccccc3)ccc2c1	·	-1.9	-4	-1	·	1
CN(C)CC[C@@H](c1ccc(Br)cc1)c1ccccn1	10%	-2.4	-1	0	·	-19
O=C(NC1CCCCCC1)c1ccc(N2CCCC2=O)cc1	4%	-1.9	2	4	0%	-4
CN(CC(=O)N1CCOCC1)C(=O)CSc1nc2ccccc2s1	4%	-1.9	-3	6	2%	-3
O=C(C1CCN(S(=O)(=O)N2CCC3(CC2)OCCO3)CC1)N1CCOCC1	8%	-1.1	3	3	25%	-4
CCCCCc1nnc(NC(=O)OCCC)s1	3%	-2.1	9	0	22%	-11

Marked active in Six1-Eya2 inh (from the list above):
SMILES	gsp antagonist	D2 ag	Six1-Eya2 inh	CtBP-E1A blk	gsp agonist	D2 potentiator
Cc1ccc(C(=O)Nc2nc(-c3ccccn3)cs2)o1	-13%	1.6	-93*	?	-1%	4
